Beta2AR agonist: agonists of human beta-2 adrenergic receptor inducing internalization. AID 504454. 340,000 tested, 0.43% active. response, % (test concentration not listed). Am2.2-beta2AR cells, FAP receptor internalization, flow cytometry; reference of the scale not given here. P07550;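 active = response above a set limit, near 3 SD of response in nonfluorescent compounds, cut at about 42% in these data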;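 also: stock transfer was 100 nL into about 11 µL; a reference agonist was the positive control; negative values mostly stem from fluorescent compounds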
Target sequence (P07550 whole entry, looked up): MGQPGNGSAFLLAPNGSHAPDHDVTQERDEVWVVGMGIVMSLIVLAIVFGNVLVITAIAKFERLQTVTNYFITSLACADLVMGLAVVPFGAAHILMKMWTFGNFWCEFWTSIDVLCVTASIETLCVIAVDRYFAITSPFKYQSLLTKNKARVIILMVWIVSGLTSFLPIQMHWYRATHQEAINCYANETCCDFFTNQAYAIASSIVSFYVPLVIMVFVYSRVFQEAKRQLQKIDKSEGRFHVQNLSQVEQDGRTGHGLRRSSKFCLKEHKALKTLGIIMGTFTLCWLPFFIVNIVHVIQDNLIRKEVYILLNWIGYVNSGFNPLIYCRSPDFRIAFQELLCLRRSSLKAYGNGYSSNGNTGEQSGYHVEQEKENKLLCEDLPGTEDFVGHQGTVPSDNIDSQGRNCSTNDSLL
T cruzi inh: T. cruzi replication inhibition. inhibition, % (test concentration not listed). T. cruzi beta-gal in NIH3T3, luminescence, 90 h. 300,000 tested, 1.4% active;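 active = mean inhibition across valid replicates above about 55%, limit read from the data; inconclusive = mean below that limit but half or more replicates reach it; inactive = mean below it, under half of replicates reach it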;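 also: signal also drops with host cell toxicity which is not excluded here; 0% = plate median of DMSO wells and 100% = zero luminescence signal; higher percent means less beta-gal luminescence so fewer parasites; stock transfer was 50 nL into about 50 µL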
A1 inh: inhibitors of the anti-apoptotic protein A1, read as caspase activation. MEF A1-2A-BIM cells, Caspase-Glo 3/7 luminescence, 3 h; percent of clofoctol response, vehicle zero. caspase activation, % (test concentration not listed). 330,000 tested, 0.066% active. AID 2462;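 active = over half of replicate activation scores above 10%, or exactly half above 10 with the replicate mean above 10; inconclusive = replicate mean below 10 yet half the replicates above 10; inactive = over half of replicates below 10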;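 also: wells of about 30 µL received 50 nL stock; many hits fall short of the cut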
Calb FLC: affects C. albicans growth with fluconazole. C. albicans CaCi-2 (fluconazole-resistant clinical isolate) + fluconazole, Alamar Blue growth, 48 h. growth inhibition, % (concentration not given with the values). 300,000 tested, 0.57% active;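 active = most replicates above 75%; inconclusive = exactly half above 75%; inactive = most below 75%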;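 also: all wells also contain fluconazole at 8 µg/ml as a sub-toxic cotreatment; 0% = median of DMSO wells and 100% = median of geldanamycin control wells; wells of about 8 µL received 7.5 nL stock; the first replicate is given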
LANA-H2A inh: blocks KSHV LANA binding to histone H2A/H2B | Q9QR71 | cell-free LANA-H2A/H2B peptide, fluorescence polarization | inhibition, % (no concentration beside the values) | 320,000 tested, 0.6% active | AID 2629; in the data active = inhibition mostly above about 10%, no sharp cut-off; inactive = mostly below about 6.7%;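 also: stock transfer was 7.5 nL into about 10 µL; 0% = median of vehicle wells and 100% = median of positive control wells; one replicate is shown; the record names a cut of 25% in any replicate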
ALR H2O2 inh: inhibitors of human sulfhydryl oxidase ALR. P55789. purified ALR, DTT oxidation, H2O2 HRP-luminol luminescence. inhibition, % (concentration not given with the values). 290,000 tested, 3.8% active;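 active = mean and each replicate at 75% or more; inconclusive = only one of the two met; inactive = neither met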;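 also: stock transfer was 7.5 nL into about 7.5 µL; 0% = neutral wells and 100% = wells with inactivated enzyme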
Target sequence (P55789 whole entry, looked up): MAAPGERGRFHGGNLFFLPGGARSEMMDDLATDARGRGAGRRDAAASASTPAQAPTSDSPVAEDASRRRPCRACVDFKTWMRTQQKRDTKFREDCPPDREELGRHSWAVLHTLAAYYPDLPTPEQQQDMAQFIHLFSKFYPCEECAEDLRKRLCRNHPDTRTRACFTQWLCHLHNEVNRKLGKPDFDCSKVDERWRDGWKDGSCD
rRNA inh HTS: inhibitors of bacterial rRNA selective over humanized ribosomes; E. coli WT GFP vs humanized-ribosome RFP mutants, fluorescence, 24 h; active compounds read low; DMSO median 0, no signal -100; GFP signal change (wild-type ribosome), % (concentration not given with the values); 350,000 tested, 1.6% active; AID 720706;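 active = significant combined selectivity score with lowered wild-type GFP, culture density cut under 30%, mutant RFP and density less affected; inactive = any of these conditions unmet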; also: one replicate is shown; some compounds called inactive have numbers as strong as hits
Beta apoptosis: beta cell apoptosis inhibition; INS-1E cytokine-induced death, ATP luminescence, 48 h; percent of positive-control rescue, neutral wells zero; protection from apoptosis, % (test concentration not listed); 300,000 tested, 0.8% active; AID 435005;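 active = all replicates at 75% or more, or half of them and the mean; inconclusive = half reach 75% but not the mean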;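 also: 0% = cytokine-treated negative control wells and 100% = positive control rescue; higher means more ATP so stronger rescue from cytokine killing; wells of about 40 µL received 100 nL stock; the first replicate is given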
rRNA inh HTS OD600: second read-out of rRNA inh HTS, no call of its own (marks repeat the call); OD600 change, %; measured here: OD600 growth;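 optical density of the mix in the first replicate; 0 = DMSO median and -100 = no signal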
rRNA inh HTS RFP: recorded beside rRNA inh HTS, whose call it bears; RFP signal change, %; measured here: RFP humanized mutant strains;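 first replicate; 0 = DMSO median and -100 = no signal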
An asterisk follows results filed as active; i = inactive; ? = inconclusive; nt = no result given; & = joins results of further samples.

SMILES	Beta2AR agonist	T cruzi inh	A1 inh	Calb FLC	LANA-H2A inh	ALR H2O2 inh	rRNA inh HTS	rRNA inh HTS OD600	rRNA inh HTS RFP	Beta apoptosis
O=C(Nc1ccc(Cl)cc1)N(Cc1nc2ccccc2c(=O)[nH]1)Cc1cccs1	-2	32	1.3	-3	-3.1	-4	nt	nt	nt	5
CC(=O)c1cccc(NC(=O)NCCc2ccc(Cl)cc2)c1	-2	9	0.6	1	3.1	-19	1	-5	4.2	-1
CCOc1ccc(NC(=O)C(C)N2C(=O)c3ccccc3S2(=O)=O)cc1 (configuration not stated)	-8	-1	0.2	0	-4.5	-3	5	9	2.0	-5
Cc1ccc(-c2csc3ncnc(Oc4ccc5c(C)cc(=O)oc5c4)c23)cc1	4	9	-0.5	2	-4.7	6	15	5	0.8	4
Cc1coc2c(C)c3oc(=O)c(CCC(=O)NCCN4CCOCC4)c(C)c3cc12	-4	-1	0.5	-5	-0.3	nt	nt	nt	nt	3
Cc1nc(N2CCN(c3ccccc3)CC2)[nH]c(=O)c1CCC(C)C	3	-11	0.7	-5	1.0	-3	-9	-3	-6.7	-2
C#CCOCCOCCOCCNc1nc(N2CCN(C(=O)[C@H](C(C)C)n3cc(CCO)nn3)CC2)nc(N2CCN(C(=O)[C@H](CCCCN)n3cc(CCCC)nn3)CC2)n1	5	-5	0.9	5	2.8	0	-2	3	1.1	-8
Cc1nc(N)sc1-c1nnc(SCC(=O)Nc2ccccc2C(F)(F)F)n1C	-3	-1	1.5	?	3.2	-6	nt	nt	nt	-2
COc1cccc(-n2nnnc2SCC(=O)Nc2cccc(C)n2)c1	-2	1	-0.2	12	0.6	-1	2	2	-1.0	-5
O=C(N/N=C/c1cccnc1)c1cccc(S(=O)(=O)N2CCCC2)c1	7	-8	-0.2	0	3.0	-1	7	4	-3.7	4
CCOC(=O)c1sc2nc(C)cc(-c3ccccc3)c2c1N	-36	-1	-0.2	7	-3.4	nt	nt	nt	nt	-1
Cc1csc2ncc(C(=O)NC(C)c3ccccc3)c(=O)n12 (configuration not stated)	-9	1	1.6	10	-0.7	6	-2	-11	0.2	7
c1ccc(CN2CCN(CCOCCOc3cccc4ccccc34)CC2)cc1	6	45	0.3	4	-3.2	-13	-46	-79	-6.7	-5
CCCNC(=O)CCn1nc(-c2ccccc2)c2ccccc2c1=O	-9	-2	0.6	4	-0.8	-1	nt	nt	nt	nt
Cc1ccc(N2C(=O)C3NN=C(C(=O)OCc4ccccc4)C3C2=O)cc1 (configuration not stated)	1	-1	-0.4	8	2.6	3	nt	nt	nt	1
CCCCN(C)CCCNC(=O)Cn1c(=O)sc2ccccc21	-7	36	1.6	-5	0.5	-7	nt	nt	nt	-1
COc1ccc(/C=C/C(=O)NCCSCc2ccco2)cc1	-1	6	0.1	49	-1.4	2	nt	nt	nt	nt
O=C(c1cccn2c(=O)c3ccc(Cl)cc3nc12)N1CCN(Cc2ccc3c(c2)OCO3)CC1	5	22	0.5	14	-0.9	-5	8	-5	20	1
CCc1ccc(NC(=O)CSc2nnc(CNC(=O)c3ccco3)o2)cc1	-1	-28	-0.2	6	-4.2	-2	2	6	-2.3	-7
CCOC(=O)/C=C/C(=O)OCC(=O)Nc1ccc(Cl)cn1	7	-10	0.3	-18	-1.5	14	10	-2	2.1	-8
Cc1ccc(O)c(NC(=O)COc2cc(C)ccc2C)c1	0	0	-1.1	-3	-1.5	-8	nt	nt	nt	1
CCOC(=O)c1cc2sc(C)cc2n1CC(=O)N1CCOCC1	-2	-12	0.7	-7	0.1	1	nt	nt	nt	-2
O=S(=O)(c1ccc(Cl)cc1)N1CCN=C1SCc1cccc(Cl)c1	-9	6	0.1	35	0.7	nt	-23*	-1.9*	-3.2*	-14
CCOc1ccc(/C=C/c2nc(C#N)c(NCCCN(C)C)o2)cc1	19	6	0.1	7	0.3	9	8	-9	2.5	-1
CCc1ccc(NC(=O)c2cnc3scc(C)n3c2=O)cc1	-13	3	-1.4	1	2.3	nt	3	10	-1.2	2
Other entries follow:
SMILES	Beta2AR agonist	T cruzi inh	A1 inh	Calb FLC	LANA-H2A inh	ALR H2O2 inh	rRNA inh HTS	rRNA inh HTS OD600	rRNA inh HTS RFP	Beta apoptosis
Nc1cccc2c1C(=O)N(C(=O)c1cccc(S(=O)(=O)N3CCCC3)c1)C2=O	1	-7	0.9	7	5.3	6	nt	nt	nt	nt
CC(C)N1CC(COc2ccc(Br)cc2)OC1=O (configuration not stated)	8	-3	2.0	-4	3.6	0	7	8	-1.5	-9
COc1ccc(Cn2c(N)c(C#N)c3nc4ccccc4nc32)cc1OC	-2	9	0.2	nt	-1.2	-24	nt	nt	nt	-3
COc1ccccc1Nc1nc(N)nc(CSc2nccc(C)n2)n1	-10	3	-0.6	-7	-2.0	-10	nt	nt	nt	-3
COC(=O)c1cscc1S(=O)(=O)Cc1ccccc1	6	-12	0.2	3	1.8	-7	6	9	-1.8	-7
CCCC(C(=O)Nc1ccc(S(=O)(=O)Nc2ncccn2)cc1)c1ccccc1 (configuration not stated)	2	-12	0.1	40	-2.5	15	3	0	5.0	-8
COc1ccccc1NC(=O)c1ccc(NC(=O)CN2CCN(C(=O)c3ccco3)CC2)cc1	-2	-3	0.3	10	4.5	-3	2	-7	4.7	-6
Cc1cc(C)cc(NC(=O)CCn2ccnc2)c1	-3	-3	1.2	8	-1.6	-2	7	7	0.3	-5
O=C(CN1CCCCCC1)Nc1ccccc1[N+](=O)[O-]	-5	-8	-0.7	9	1.4	-14	3	4	-2.2	-4
COc1cc(CC(=O)OCC(=O)Nc2cc([N+](=O)[O-])ccc2Cl)cc(OC)c1OC	16	-6	1.2	5	2.6	-5	nt	nt	nt	-4
COc1ccccc1NS(=O)(=O)c1ccc(Cl)cc1	18	20	1.0	28	1.0	13	-22	-20	-0.3	-5
Cc1nc(C(C)(C)O)n(-c2ccccc2)n1	1	2	0.4	7	-0.4	-3	nt	nt	nt	-3
O=C(C[n+]1ccccc1)N/N=C/c1ccc(C(=O)O)cc1	11	nt	-0.3	nt	-2.2	10	2	10	-0.6	-2
Fc1ccc(-c2ccc(CNCc3ccccn3)o2)cc1	0	-9	-1.7	1	-8.0	9	5	-7	2.2	nt
CCn1c(SCC(=O)Nc2cccc(O)c2)nc2c1c(=O)n(C)c(=O)n2C	8	-9	0.0	0	0.5	-19	3	-1	-1.3	-5
O=C(COc1ccc(F)cc1)N(Cc1cccc(Br)c1)C1CCS(=O)(=O)C1 (configuration not stated)	53*	2	-1.0	-3	-0.4	-8	-15	-16	-1.1	nt
O=C(OCCN=C1NS(=O)(=O)c2ccccc21)c1cccnc1	-4	-11	-0.1	-5	-0.9	8	nt	nt	nt	2
CCOC(=O)c1ccc(NNC(C)=O)c([N+](=O)[O-])c1	0	-10	-0.3	1	-0.8	40	2	7	-1.8	0
Cc1cccc(C)c1NC(=O)Cn1nc(-c2ccccc2)nc1-c1ccccc1	-4	-15	0.1	-10	-2.6	-7	nt	nt	nt	-9
O=C(c1cccc(Br)c1)c1conc1C(=O)c1ccco1	7	-26	0.0	3	-0.6	-4	3	4	4.0	5
CCC(=O)NCCCOc1ccccc1	10	-7	-0.7	-8	-3.0	-1	4	1	1.5	-3
Cn1ccc(C(=O)N/N=C/c2ccccc2[N+](=O)[O-])n1	-5	-4	-0.1	-2	1.9	5	7	-3	32	-6
COc1ccc(C2CC(c3ccc(C)cc3)=NN2C(=O)c2ccccc2)cc1 (configuration not stated)	2	2	-0.4	-2	-8.1	-1	2	-15	3.0	9
CSc1ccccc1NC(=O)COC(=O)Cc1ccsc1	-6	nt	-0.4	nt	-0.3	-4	nt	nt	nt	4
Brc1cccc(CNc2nc3ccccc3n2CCN2CCOCC2)c1	-14	6	0.0	19	0.6	44	-23	-22	-1.3	1
Further entries.
SMILES	Beta2AR agonist	T cruzi inh	A1 inh	Calb FLC	LANA-H2A inh	ALR H2O2 inh	rRNA inh HTS	rRNA inh HTS OD600	rRNA inh HTS RFP	Beta apoptosis
CN1C(=O)C(C)(C)c2cc(S(=O)(=O)NCc3ccc(C(=O)NCc4ccco4)cc3)ccc21	-2	-18	0.2	-3	-1.5	2	4	4	3.6	-1
CCOC(=O)/C(=N\Nc1ccc(Cl)cc1)c1csc(Nc2ccccc2)n1	3	65*	-1.5	-20	1.6	9	nt	nt	nt	15
Cc1nnc(SCC(=O)Nc2ccc(Cl)cn2)[nH]c1=O	-1	-26	-0.6	-2	-2.5	-27	nt	nt	nt	-10
CC1CCN(C(=O)/C=C/c2ccc(C(C)(C)C)cc2)CC1	-1	12	0.7	2	5.4	5	-52	-80	-11	-2
COc1ccccc1CNC(=O)c1c(-c2ccccc2)nn(-c2ccccc2)c1C	-6	20	-1.0	-6	-0.5	7	nt	nt	nt	0
CC(OC(=O)c1cc2c(ccc3ccccc32)oc1=O)c1nc2ccccc2s1 (configuration not stated)	6	2	0.0	8	0.3	nt	6	0	-6.0	8
CCN(CC)CCNC(=O)c1c(C)n(-c2ccccc2)c2cc(Br)c(OC)cc12	23	17	0.6	12	7.3	-4	nt	nt	nt	11
COc1ccc(C(=O)C2CCCN(Cc3ccc4nonc4c3)C2)cc1OC (configuration not stated)	-2	7	0.4	-3	-1.2	-4	-6	-3	-1.8	1
O=C(CC1CCCC1)N1CCN(S(=O)(=O)c2ccccc2)CC1	i	nt	0.5	nt	-25	-1	1	1	-2.9	0
Cc1cc2n(c1)CCn1c(C)ccc1-2	nt	6	-0.3	4	1.5	-3	nt	nt	nt	nt
COc1ccc(OC)c(NC(=O)C2CCCN(S(=O)(=O)c3cccc4nsnc34)C2)c1 (configuration not stated)	-3	10	-2.2	-1	-2.9	-13	nt	nt	nt	8
S=C(NCc1ccncc1)Nc1ccc(Br)cc1Cl	-2	-3	0.5	5	2.8	3	-6	-17	-7.3	2
Nc1c(C(=O)N2CCCCC2)sc(=S)n1-c1ccccc1	-14	nt	0.9	-20	-3.1	99*	nt	nt	nt	-7
O=C(Nc1cccc(F)c1)NC1CC2CCCC(C1)N2C1CC1 (configuration not stated)	13	-6	-0.2	-4	-1.2	-3	nt	nt	nt	-8
Nc1nc2ccc(OC(F)(F)F)cc2s1	-4	-5&-11	0.3&-3.5	2&4	9.1&-2.8	nt	nt	nt	nt	-8&-5
CCC(C(=O)Nc1cc(C)nn1-c1nc(C)cc(C)n1)c1ccccc1 (configuration not stated)	10	-13	-0.2	-11	0.0	3	nt	nt	nt	5
CCO[C@@H]1OC(C(=O)NCc2ccccc2)=C[C@H](C)[C@H]1CCCO	-2	-18	0.7	-8	-1.4	-14	7	0	1.1	3
O=C(Cn1nnc(-c2ccccc2NC(=O)C2CC2)n1)NC1CCCCC1	-17	11	0.3	1	2.8	0	nt	nt	nt	-1
CC(=O)C1C(c2cccc(Oc3ccccc3)c2)NC(=O)NC1(O)C(F)(F)F (configuration not stated)	-15	-10	0.3	14	3.2	2	-13	-18	0.9	-7
COc1ccc(C(C(=O)NC2CCCC2)N(C(=O)c2snc(-c3ccc(F)cc3)c2N)c2ccccc2)cc1 (configuration not stated)	3	-14	0.0	?	2.4	0	nt	nt	nt	2

Screening data deposited in PubChem by several laboratories.

Only part of the results is shown; rates above refer to the full screens.
